Bioassay records from PubChem BioAssay.
PKD1 inh = inhibitors of human PKD1 kinase, biochemical, fluorescence polarization. hit rate 0.056% among 200,000. PKD1 kinase fluorescence polarization assay. inhibition, %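 (about 10 µM by stock and volumes)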. Serine/threonine-protein kinase D1 (Homo sapiens), Q15139;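 active means inhibition of 50% or more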;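 further: controls were vehicle for no effect and a reference inhibitor for full effect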
RGS16-Gao = modulators of RGS16 binding to Galphao, primary screen, biochemical, human proteins, multiplexed bead flow cytometry. binding response (% of control), % at 10 µM. bead-based flow cytometry RGS16-Galphao binding, fluorescence; actives lie on both sides. hit rate 0.38% among 220,000;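 active means below 25% or above 175%, edge rows of some plates excepted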;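 further: Galphao activated by GDP with aluminum fluoride before binding; 100% = wells without compound and 0% = beads without RGS; some results beyond the cut were filed as inactive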
Target sequence (O15492 whole entry, looked up): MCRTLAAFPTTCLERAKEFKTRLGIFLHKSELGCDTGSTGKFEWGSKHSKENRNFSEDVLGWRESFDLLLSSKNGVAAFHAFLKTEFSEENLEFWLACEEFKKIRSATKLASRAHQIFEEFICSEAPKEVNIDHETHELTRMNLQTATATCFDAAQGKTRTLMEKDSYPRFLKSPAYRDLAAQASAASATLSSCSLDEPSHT
Target sequence (P09471 whole entry, looked up): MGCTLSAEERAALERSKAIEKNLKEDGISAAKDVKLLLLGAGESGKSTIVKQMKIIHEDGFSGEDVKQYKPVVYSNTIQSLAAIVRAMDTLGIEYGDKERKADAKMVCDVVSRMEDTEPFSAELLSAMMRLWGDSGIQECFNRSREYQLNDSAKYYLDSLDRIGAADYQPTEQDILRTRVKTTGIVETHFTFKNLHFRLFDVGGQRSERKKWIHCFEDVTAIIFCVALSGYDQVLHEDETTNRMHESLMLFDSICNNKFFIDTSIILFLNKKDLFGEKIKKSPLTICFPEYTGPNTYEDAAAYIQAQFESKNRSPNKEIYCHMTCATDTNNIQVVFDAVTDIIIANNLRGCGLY
GALR2 ag = GALR2 receptor agonists, primary screen, cell-based; AID 803, 2007; activation, %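 (tested at 5 µM)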; GALR2-expressing cells, agonist activation read-out; hit rate 0.48% among 140,000;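 active means above mean plus 3 SD of all compounds, about 5% in these data, not always enough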;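 further: 0% = vehicle buffer wells and 100% = reference agonist at full effect; tested in CHO reporter cells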
Target sequence (O43603 whole entry, looked up): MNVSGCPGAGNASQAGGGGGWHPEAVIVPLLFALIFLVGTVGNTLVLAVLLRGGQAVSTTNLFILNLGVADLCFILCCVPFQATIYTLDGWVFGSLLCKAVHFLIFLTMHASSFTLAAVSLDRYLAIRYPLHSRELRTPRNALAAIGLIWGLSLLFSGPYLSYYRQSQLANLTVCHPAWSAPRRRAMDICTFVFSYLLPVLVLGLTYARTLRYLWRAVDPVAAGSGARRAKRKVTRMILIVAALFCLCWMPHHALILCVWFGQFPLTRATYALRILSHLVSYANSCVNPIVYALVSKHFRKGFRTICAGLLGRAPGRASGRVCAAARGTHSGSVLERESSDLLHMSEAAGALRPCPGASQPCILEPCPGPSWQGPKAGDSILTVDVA
HSV replic up = enhancers of HSV replication in host cells, fold increase, host cell viability; HSV replication augmentation in cells; maximum fold increase; hit rate 0.005% among 220,000; AID 1956, 2009;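 active means peak rise of 1.5-fold or more in the series; tested in PC3 cells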;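 further: first round at 10 µM; read as green reporter fluorescence; hits show the peak of a series up to 25 µM; 1 = signal of infected wells without compound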
Insulin prom inh = inhibitors of insulin promoter-driven GFP, primary screen, imaging, TRM-6 cells (human fetal islet line), eGFP reporter, cell count. reporter expression induced with tamoxifen. inhibition, % at 2 µM. hit rate 0.9% among 130,000. AID 1273, 2008;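 active means inhibition above the mean plus 3 SD, with well images judged a real hit on visual review, cut at about 60% in these data, passing the limit was not always enough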
Insulin prom inh cell count = also measured in Insulin prom inh; calls as there; normalized cell count, %; measured here: cell count, toxicity; reference of the scale not given here;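 cells exposed to compound for 48 h; stained nuclei by imaging scaled within each plate; lower means fewer cells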
HSV replic up primary fold = second read-out of HSV replic up, no call of its own (marks repeat the call); fold increase; compound at 10 µM; measured here: primary screen fold increase 10 uM; tested in PC3 cells;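 GFP signal in the first replicate; 1 = infected wells without compound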
* = called active by the depositor; i = inactive; nt = not tested or not shown. Rows were taken by chance. Share with any hit: about 1.2%.

The opening 2 records as a preview:
SMILES	PKD1 inh	RGS16-Gao	GALR2 ag	HSV replic up	HSV replic up primary fold	Insulin prom inh	Insulin prom inh cell count
O=S(=O)(NCc1cccnc1)c1ccc(Cl)c(Cl)c1	-6	98	-0.9	i	1.1	9	171
O=C(CSC(=S)N1CCOCC1)Nc1nc(-c2ccccc2)c(-c2ccccc2)o1	-2	97	-1.6	i	0.88	3	141

The listing, previewed entries included:
SMILES	PKD1 inh	RGS16-Gao	GALR2 ag	HSV replic up	HSV replic up primary fold	Insulin prom inh	Insulin prom inh cell count
O=S(=O)(NCc1cccnc1)c1ccc(Cl)c(Cl)c1	-6	98	-0.9	i	1.1	9	171
O=C(CSC(=S)N1CCOCC1)Nc1nc(-c2ccccc2)c(-c2ccccc2)o1	-2	97	-1.6	i	0.88	3	141
O=C(Nc1ccc2c(c1)OCO2)[C@@H]1[C@@H]2C(=O)N(C3CCCCC3)C(=O)[C@@H]2C2c3ccccc3C=CN21 (stereo partly specified)	-4	101	-1.8	i	0.9	nt	nt
O=C(CCn1c(=O)sc2ccccc21)NC1=NCCS1	-7	102	0.2	i	0.79	-3	139
Cc1nn(C)c(C)c1S(=O)(=O)N1CCC(C(=O)NCC2COc3ccccc3O2)CC1 (stereo unspecified)	5	107	-2.1	i	1	nt	nt
CC(=O)c1c(C)[nH]c(C(=O)Nc2cccnc2)c1C	9	103	-3.4	i	0.74	0	106
COCCn1c(SCC(=O)NCc2ccc3c(c2)OCO3)nnc1-c1c[nH]c2ccccc12	2	98	-2.6	i	0.75	nt	nt
COC(=O)c1ccc(C23CC4(C2)[C@H](CN(Cc2ccc(-c5ccccc5)cc2)[C@@H]4c2ccccc2)C3c2ccc(C(F)(F)F)cc2)cc1 (stereo partly specified)	nt	110	nt	i	0.91	nt	nt
Cc1ccc2ncnc(NCCCCCC(=O)O)c2c1	0	121	nt	i	1	-7	54
COC(=O)c1ccc(C2Nc3cccc4cccc(c34)N2)cc1	0	99	nt	i	0.95	44	49
C=CC(=O)Nc1ccc(Br)cc1	5	97	0.1	i	0.79	41	83
CN(C)C(=O)CC12CC3CC(C1)CC(CC(=O)N(C)C)(C3)C2	7	101	nt	i	1.2	12	137
O=[N+]([O-])c1ccc(S(=O)(=O)N/N=C/c2ccco2)cc1	-2	96	nt	i	1.2	nt	nt
Cc1cccc(NC(=S)N(C)C)c1C	nt	100	nt	i	0.89	nt	nt
COCCn1nnnc1C(c1ccc(OC)cc1)N1CCN(c2ccccc2F)CC1 (stereo unspecified)	-10	104	-1.7	i	0.85	nt	nt
CCc1c(C)c2ccc(OCC(=O)N(C)C)c(C)c2oc1=O	-10	121	-0.2	i	0.83	-150	94
COc1ccc(N2C(=O)CCC(C(=O)O)C2c2ccccc2OC)cc1 (stereo unspecified)	nt	101	nt	i	0.94	nt	nt
COc1cc(OC)c(S(=O)(=O)N2CCN(C(=O)c3ccccc3F)CC2)cc1NC(C)=O	-4	98	nt	i	0.96	nt	nt
CC1CN=C(NC2CCCCC2C)S1 (stereo unspecified)	-14	115	-0.8	i	0.82	nt	nt
CCOC(=O)c1[nH]c2cc(OC)c(OC)cc2c1NC(=O)CN(C)C1CCCCC1	0	98	-1.0	i	0.93	12	72
COc1ccccc1-n1c(=S)[nH]c2c(sc(=S)n2-c2ccccc2C)c1=O	2	101	nt	i	1.3	39	85
Cc1ccc(C(=O)Nc2ccc3c(c2)CCC3)cc1S(=O)(=O)N1CCOCC1	-6	99	nt	i	0.88	nt	nt
COc1cccc([C@H](O)Cn2cc(-c3ccc(CON=C(C)C)cc3)nn2)c1	-3	120	-2.0	nt	nt	27	83
CCO/C=C1/C(=O)N(c2ccc(OC)cc2)C(=O)c2ccccc21	3	102	nt	i	1	nt	nt
C/C(Cn1cnc([N+](=O)[O-])n1)=N\NC(=O)c1cccc(F)c1	-4	111	-1.3	i	0.91	10	128
CC(C)CC(c1nnnn1CC1CCCO1)N1CCN(c2nc3ccccc3s2)CC1 (stereo unspecified)	-10	110	-1.8	i	0.88	nt	nt
O=C(NCCc1ccccn1)c1ccc(COc2ccccc2)o1	3	120	1.9	i	0.87	-28	60
Cc1nc(SCc2ccc(Cl)c(Cl)c2)ncc1C(=O)O	-5	101	nt	i	1.1	38	101
CCn1c(=O)n(CC)c2cc(N)ccc21	-2	101	nt	i	0.89	nt	nt
COc1cc(-c2ccc(Nc3ccccc3C(=O)O)c(OC)c2)ccc1Nc1ccccc1C(=O)O	nt	98	nt	i	1.2	nt	nt
CCOc1cc(N2CCOCC2)c(OCC)cc1NC(=O)c1ccc(C)s1	-10	143	nt	i	0.94	nt	nt
CN=C(c1ccc([N+](=O)[O-])cc1)N1CCCCC1	-2	106	nt	i	0.86	nt	nt
COc1ccc(C=O)c(OC)c1	3	84	nt	i	0.9	nt	nt
COC(=O)C1C(c2ccccc2)C(C(=O)O)C1c1ccccc1 (stereo unspecified)	-9	103	nt	i	0.95	10	67
CC(OC(=O)c1cc2ccccc2cc1O)C(=O)Nc1ccc(S(N)(=O)=O)cc1 (stereo unspecified)	nt	103	nt	i	0.9	nt	nt
CC1CN(C(=O)C2CCCCC2)C(C)CN1C(=O)C1CCCCC1 (stereo unspecified)	-5	104	-1.4	i	0.99	26	147
COc1ccc(-c2cc(C(F)(F)F)nc(N3CCCCC3)n2)cc1OC	-1	99	-1.5	i	0.8	27	137
O=C(CSc1n[nH]c(-c2ccncc2)n1)NC1CCS(=O)(=O)C1 (stereo unspecified)	17	110	-0.6	i	1	nt	nt
Cc1ccc(O)c(NC(=S)NC(=O)c2ccccc2Cl)c1	6	101	nt	i	0.88	13	159
Cc1cc(OC(=O)c2ccc(S(=O)(=O)N3CCOCC3)cc2)c([N+](=O)[O-])c(=O)[nH]1	-2	114	nt	i	0.93	32	47

Sorted by count of non-hydrogen atoms (largest number first): part of the list above.
SMILES	PKD1 inh	RGS16-Gao	GALR2 ag	HSV replic up	HSV replic up primary fold	Insulin prom inh	Insulin prom inh cell count
COc1cc(-c2ccc(Nc3ccccc3C(=O)O)c(OC)c2)ccc1Nc1ccccc1C(=O)O	nt	98	nt	i	1.2	nt	nt
CCOc1cc(N2CCOCC2)c(OCC)cc1NC(=O)c1ccc(C)s1	-10	143	nt	i	0.94	nt	nt
CCO/C=C1/C(=O)N(c2ccc(OC)cc2)C(=O)c2ccccc21	3	102	nt	i	1	nt	nt

(more compounds)
SMILES	PKD1 inh	RGS16-Gao	GALR2 ag	HSV replic up	HSV replic up primary fold	Insulin prom inh	Insulin prom inh cell count
COc1ccccc1OC(=O)c1cc(Cl)nc2ccccc12	3	98	-1.2	i	0.98	nt	nt
COc1ccc(/C=N/Nc2cc(C)nc(N)n2)cc1	1	101	-0.2	i	0.9	3	92
COc1cccc(CN2CCN(S(=O)(=O)c3ccc(Br)cc3)CC2)c1	0	104	-1.4	i	0.94	6	85
CCOC(=O)CSc1nnc(-c2ccc(NS(=O)(=O)c3ccc(C)cc3)cc2)o1	-5	88	0.1	i	0.86	0	102
O=c1cc(N2CCN(Cc3ccccc3)CC2)[nH]c(=O)n1Cc1ccc(F)cc1	-11	90	-4.0	i	0.95	-3	66
CN(CC(=O)O)c1ccc(S(=O)(=O)N2CCOCC2)cc1[N+](=O)[O-]	-1	98	nt	i	0.93	nt	nt
FC(F)(F)c1nc2ccccc2nc1N/N=C/c1c(Cl)cccc1Cl	2	99	-0.4	i	1	-11	48
COCCCNC(=O)Cn1c(=O)n(CCCCCC(=O)NCc2ccc3c(c2)OCO3)c(=O)c2sccc21	11	101	nt	i	1	-100	78
Clc1ccc(SCc2csc(N3CCOCC3)n2)cc1	nt	106	nt	i	0.98	nt	nt
Cc1ccc(C(=O)Nc2nc(=O)n(C(=O)CC(C)C)s2)cc1	-4	100	-1.9	i	0.81	nt	nt
O=C(CC(=O)N/N=C/c1ccc(O)cc1)N/N=C/c1ccc(O)cc1	nt	100	nt	i	0.94	nt	nt
CN(C)C(/C=C/Nc1ccc(F)cc1)=C(C#N)C#N	3	110	-1.2	i	0.92	nt	nt
CCOC(=O)C(NC(=O)CC)(Nc1ccccc1)C(F)(F)F (stereo unspecified)	-7	105	-1.7	i	0.99	-86	73
CCCCOCCCNC(=O)CN1C(=O)c2ccccc2C1=O	3	97	-2.0	i	0.86	57	58
Nc1ccn([C@@H]2O[C@H](CO)[C@@H](O)[C@@H]2O)c(=O)n1	13	79	-1.5	i	0.53	-67	27
CC(C)OC(=O)Cn1cc(C#N)c2ccccc21	6	107	nt	i	0.94	nt	nt
CCc1nnc(NC(=O)CSc2nnc(-c3ccc(S(=O)(=O)N(CC)CC)cc3)n2CC)s1	-3	101	-1.7	i	0.67	nt	nt
CC1(C)CC2CC(C)(CN2S(=O)(=O)c2ccc(C(=O)Nc3ccc(Cl)c(S(=O)(=O)N4CCOCC4)c3)cc2)C1 (stereo unspecified)	-4	112	-0.8	i	0.98	39	63
COc1ccc(CCNC(=O)c2ccc3c(c2)SC2=NS(=O)(=O)CCN23)cc1	nt	103	nt	i	0.97	nt	nt
CC(=O)Nc1ccc(NC(=O)C2CCCN(c3nnc(-n4cccc4)s3)C2)cc1 (stereo unspecified)	-1	96	-0.8	i	0.99	nt	nt
CCOC(=O)C1C(C(=O)NN)C1C(=O)Nc1ccccc1 (stereo unspecified)	4	101	nt	i	0.97	36	103
Cc1ccc(Nc2nc(-c3ccc(S(=O)(=O)N4CCOCC4)cc3)cs2)cc1	8	nt	-1.1	i	0.86	63	108
COc1ccc(N2C(=O)CSC2c2ccncc2)cc1 (stereo unspecified)	-14	97	-0.6	i	0.89	0	78
CCCn1c(N)c(Sc2ccccc2)c(=O)n(CCC)c1=O	-6	97	-2.4	i	0.94	24	182
O=c1cc(O)c2ccccc2n1Cc1ccccc1Cl	-4	91	nt	i	0.88	0	93
COc1ccc(CCNC(=O)c2nc3ncccn3n2)cc1OC	-1	103	-0.9	i	0.92	41	79
CN(c1ccccc1)S(=O)(=O)c1ccc(NC(=O)c2ccccc2)cc1	1	100	0.1	i	0.87	-27	81
CCCCCC(=O)N1CC2(C)CN(C(=O)CCCCC)CC(C)(C1)C2=O	3	103	0.1	i	0.92	-32	146
O=C(CSc1ccc(-c2ccco2)nn1)N1CCCCC1	7	103	nt	i	1	0	117
CC1CCCN(c2ccc(C(=O)NCc3ccc4c(c3)OCO4)cc2[N+](=O)[O-])C1 (stereo unspecified)	-6	97	-2.0	i	0.92	nt	nt
OC1CN=C2C=CC=CN2C1 (stereo unspecified)	8	101	-3.6	i	0.93	43	39
CCOc1ccc(NC(=O)C2CCN(C(=O)NC3CCCCC3)CC2)cc1	-6	105	-3.0	i	0.93	-338	70
COc1ccc2cc1Oc1ccc(cc1)C[C@H]1c3cc(c(OC)cc3CCN1C)Oc1c(OC)c(OC)cc3c1[C@H](C2)N(C)CC3	nt	99	nt	i	0.53	nt	nt
O=C(CSc1nc2ccccc2s1)N/N=C/c1ccc(C(=O)O)cc1	-1	107	nt	i	0.97	-161	90
CC1=C(C(=O)NC2CCCCC2C)C2(CCC(C)CC2)OC1=O (stereo unspecified)	1	103	-1.0	i	0.87	nt	nt
O=C(Nc1nnc(SCc2ccccc2)s1)c1cccc([N+](=O)[O-])c1	-8	104	0.4	nt	nt	nt	nt
CCOc1ccccc1CNCCOC	-8	100	nt	i	0.8	nt	nt
CN(Cc1cn[nH]c1-c1ccc(-c2ccccc2)cc1)CC1CCOCC1	nt	96	nt	i	0.89	nt	nt
Fc1cccc(Cl)c1/C=N/Nc1c(Cl)cncc1Cl	-7	107	-0.2	i	0.84	25	144
CCN1C(=O)C(CC(=O)Nc2cc(C)ccc2C)SC1=Nc1ccc(S(N)(=O)=O)cc1 (stereo unspecified)	4	103	-2.5	i	0.99	nt	nt
COc1oc(-c2ccccc2C)nc1C(F)(F)F	1	101	-1.5	i	0.93	-5	60
COC(=O)CNC(=O)c1c(-c2c(Cl)cccc2Cl)noc1C	-3	103	-1.4	i	0.95	58	141
NC(=O)c1oc2ccccc2c1NC(=O)C1CCCCC1	0	96	-0.7	i	0.96	57	106
Cc1ccc(NC(=O)CSc2ncn[nH]2)cc1	-4	113	nt	i	1.1	-83	28
COC(=O)CCSCc1cn2cc(Cl)ccc2n1	1	100	-1.8	i	1	19	70
Clc1cccc(/C=N\Nc2nccs2)c1	-5	100	-1.9	i	0.87	14	114
Cc1noc(C)c1COc1ncnc2ccccc12	1	107	nt	i	0.89	-7	140
